LASV entry inh = blocks Lassa virus binding to or entry into cells | 1.2% of 300,000 active | AID 540256 | Lassa virus pseudotype entry inhibition, cell reporter; control for the full effect not named in the record | Potency, µM (doses to about 37.9 µM), inactives show top-dose activity change, negative = inhibition, hits mostly inhibitors; active means well fitted inhibition curve with a large enough effect; inconclusive means small, poorly fitted or top-dose-only effect, or effect the other way; inactive means flat fitted curve, though single readings scatter; tested in HEK293 cells; note: % is set by controls: 0 for no effect and ±100 for the full control effect; nearly all actives have a fitted effect of over 50% in size; luciferase read-out
Marburg entry inh = inhibitors of Marburg virus binding or cell entry; Marburg virus pseudotyped entry inhibition, cell reporter; control for the full effect not named in the record; about a third of the inactives were read at about 46 µM; Potency, µM (series often up to 37.8 µM), for inactives: top-dose activity change, negative = inhibition, usual class: inhibitors; 1.8% of 300,000 active; AID 540276; active = well fitted inhibition curve with a large enough effect; inconclusive = small, poorly fitted or top-dose-only effect, or effect the other way; inactive = flat fitted curve, though single readings scatter; tested in HEK293 cells; about a fifth of its hits are not listed in these tables; note: % is set by controls: 0 for no effect and ±100 for the full control effect; luciferase read-out
Cruzain noTriton = cruzain (T. cruzi) inhibition without detergent; P25779; purified cruzain, Z-FR-AMC fluorescence, no detergent; Potency, µM, for the others: max response, negative = inhibition, actives largely listed as inhibitors; 2.3% of 200,000 active;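 note: plate controls were enzyme without inhibitor for no effect and buffer without enzyme for full effect; nearly all actives have a fitted effect of over 40% in size; top concentration of the series not given in the record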
Target sequence (P25779 123-467 limits assumed): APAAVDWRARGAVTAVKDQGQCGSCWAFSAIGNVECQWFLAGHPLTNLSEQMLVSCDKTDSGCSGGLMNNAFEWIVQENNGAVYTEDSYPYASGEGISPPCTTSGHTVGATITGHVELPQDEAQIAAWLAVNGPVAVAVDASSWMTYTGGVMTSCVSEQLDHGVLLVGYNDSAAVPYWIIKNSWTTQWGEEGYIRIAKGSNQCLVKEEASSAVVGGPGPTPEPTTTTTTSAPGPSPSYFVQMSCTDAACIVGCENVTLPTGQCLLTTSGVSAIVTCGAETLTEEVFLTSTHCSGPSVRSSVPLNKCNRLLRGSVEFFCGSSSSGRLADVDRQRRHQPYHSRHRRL
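Detergent-free condition (0.00005% Triton X-100) in acetate buffer pH 5.5 with DTT. 1.5 nM enzyme and compound were pre-mixed 15 min, then 2 uM Z-FR-AMC substrate added; reaction progress from fluorescence change between first and third reads (60 s).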
RE007 growth inh = less growth of the S. pombe RE007 Vpr strain; S. pombe RE007 Vpr strain, BacTiter-Glo ATP luminescence, 24 h; control for the full effect not named in the record; Potency, µM (titrated, usually from 92.2 µM), for inactives: top-dose activity change, negative = less growth; 0.21% of 360,000 active; active = well fitted falling curve with a large enough effect; inconclusive = small, poorly fitted or top-dose-only effect; inactive = no such curve, though single readings can be large or run the other way;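 note: % is set by controls: 0 for no effect and ±100 for the full control effect; nearly all actives have a fitted effect of over 50% in size; the assay follows cell death caused by Vpr and the record does not say whether a fall means rescue or toxicity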
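Fission yeast strain RE007, carrying one chromosomally integrated HIV-1 vpr copy, was seeded at OD 0.01 in PMG+AL medium with 23 nL pinned compound. After 24 h at 30 °C and 99% humidity, viability was read by BacTiter-Glo luminescence.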
NS1 function inh = blocks influenza NS1 protein function; Potency, µM (titrated, usually from 46.1 µM), inactives show top-dose activity, positive = more growth; 0.4% of 270,000 active; AID 2326; S. cerevisiae slowed by influenza A NS1, growth recovery by OD600; active means well fitted rising curve with a large enough effect; inconclusive means small, poorly fitted or top-dose-only effect; inactive means no such curve, though single readings can be large or run the other way; note: nearly all actives have a fitted effect of over 50% in size
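Recovery from NS1-induced slow growth read by OD600 in budding yeast switched to galactose assay medium (pH 6.0, -URA) at 1:100 dilution. Compound 23 nl per well; the matching strain lacking NS1 serves as control.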
StopGo reporter = lowers the luciferase signal of an FMDV 2A StopGo reporter. human cells with a luciferase reporter of 2A StopGo recoding; control for the full effect not named in the record. Potency, µM (titrated, usually from 57.9 µM), inactives show at the highest dose signal change, negative = less light. 1.2% of 410,000 active. AID 1159524; active = well fitted falling curve with a large enough effect; inconclusive = small, poorly fitted or top-dose-only effect; inactive = no such curve, though single readings can be large or run the other way; tested in HEK293T cells; note: % is set by controls: 0 for no effect and ±100 for the full control effect; nearly all actives have a fitted effect of over 45% in size; luciferase light after 4 h
SARS PLP yeast = blocks SARS-CoV papain-like protease in a yeast assay; 0.19% of 330,000 active; Potency, µM (doses to about 32.9 µM), inactives show top-dose activity, positive = growth rescue; S. cerevisiae expressing SARS-CoV PLpro, growth rescue; control for the full effect not named in the record; AID 485353; active means well fitted rising curve with a large enough effect; inconclusive means small, poorly fitted or top-dose-only effect; inactive means no such curve, though single readings can be large or run the other way; note: 0% is about no effect; nearly all actives have a fitted effect of over 55% in size; growth read by luminescence after 48 h
Cruzain inh Det = cruzain (T. cruzi) inhibition with detergent | 0.43% of 200,000 active | Potency, µM, inactives show max response, negative = inhibition, actives largely listed as inhibitors | purified cruzain, Z-FR-AMC fluorescence, 0.01% Triton | P25779;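 note: plate controls were neutral wells for no effect and buffer without enzyme for full effect; nearly all actives have a fitted effect of over 40% in size; top concentration of the series not given in the record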
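15 min RT preincubation of 1.5 nM cruzain with compound, then 2 uM Z-FR-AMC added; kinetic AMC fluorescence, 60 s delta. Triton X-100 0.01%, pH 5.5.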
* = called active by the depositor; ? = inconclusive; · = no result given; [ ] = remark or other dose. Unless noted, calls come from the whole dose curve; as a rule, active = well fitted curve in the direction sought with a large enough effect; inconclusive = small, poorly fitted or top-dose-only effect, or another doubt; inactive = no such curve, though single readings can be large; an effect the other way counts as inactive or inconclusive. Potency is the fitted concentration of half-maximal effect.

mol	LASV entry inh	StopGo reporter	NS1 function inh	SARS PLP yeast	Marburg entry inh	RE007 growth inh	Cruzain noTriton	Cruzain inh Det
O=C(CCCOc1ccccc1)Nc1ncccn1	-8%	43%[activator]	5%	8%	?	-7%	-10%	-1.6%
CCOc1ccc(NC(=O)CSC2=Nc3ccccc3C3=NC(CCC(=O)NCc4ccccc4)C(=O)N23)cc1 (stereo not given)	16%[46.1 µM]	0%	·	·	·	·	3%	0.0%
O=C(O)c1cccc([N+](=O)[O-])c1C(=O)Nc1cccc2ccccc12	?	-6%	3%	-9%	6%	-10%	·	·
Cc1ccc(NC(=O)CCCC2CCCCC2)c(O)c1	·	42%[activator]	2%	-1%	·	-10%	·	·
COc1ccc(Br)cc1C(C[N+](=O)[O-])c1c(N)n(C)c(=O)n(C)c1=O (stereo not given)	·	?	-133%	-22%	·	10µM*	·	·
O=C(NCc1ccncc1)C1CCN(S(=O)(=O)c2ccc(Cl)c(C(F)(F)F)c2)CC1	-3%	-17%	·	4%	7%	-24%	·	·
C=Cc1ccc(Cn2c(C(=O)O)c(CNCc3ccccc3)c3ccc(OC)cc32)cc1	-12%[46.1 µM]	-11%	·	·	·	·	-15%	-12%
Cn1cc(CN2CCCC(C(=O)Nc3cccc(-n4cccn4)c3)C2)cn1 (stereo not given)	16%[46.1 µM]	2%	-1%	7%	5%[46.1 µM]	-17%	·	·
N#Cc1cc(C(=O)c2cc(Cl)ccc2O)cn(CC2CCCO2)c1=O (stereo not given)	-29%	-18%	2%	-12%	-21%	2%	-9%	-3.4%
CC1C(=O)Nc2ccc(S(=O)(=O)NCCc3ccc(Cl)cc3)cc2NC1=O (stereo not given)	·	-15%	0%	0%	·	12%	·	·
Nc1nccnc1C(=O)OCC(=O)Nc1ccc2[nH]c(=O)[nH]c2c1	-2%	-22%	·	1%	7%	-3%	·	·
CC(C)C(NC(=O)c1ccc(C(C)(C)C)cc1)C(=O)N1CCC(C(N)=O)CC1 (stereo not given)	5%	-6%	·	-2%	3%	4%	·	·

Next section.
mol	LASV entry inh	StopGo reporter	NS1 function inh	SARS PLP yeast	Marburg entry inh	RE007 growth inh	Cruzain noTriton	Cruzain inh Det
CN1CCC(=NNC(=O)c2cn(-c3ccccc3)nc2-c2ccccc2)CC1	?	-1%	?	5%	?	26%	-9%	-2.6%
COC(=O)c1ccc(C(=O)Nc2cc(Cl)ccc2Cl)cc1NC(=O)c1ccccc1C	?	9%	-7%	-1%	?	4%	?	-3.5%
O=C(N[C@@H](Cc1c[nH]c2ccccc12)C(=O)O)OCC1c2ccccc2-c2ccccc21	?	-16%	·	-5%	2%[46.1 µM]	2%	·	·
CN1CC(C(=O)c2cccs2)C(c2ccc(Cl)cc2)C1 (stereo not given)	?	-11%	0%	-1%	-26%[46.1 µM]	-20%	·	·
Cc1cc(C)n(/N=C/c2ccccc2)c(=O)c1C#N	1%	·	-2%	10%	27%	14%	5%	1.5%
CC1(C)CC(=O)C(C2(O)C(=O)N(Cc3ccccc3)c3ccccc32)CO1 (stereo not given)	?	-9%	0%	18%	?	-15%	9%	3.7%
CCOC(=O)c1[nH]c2c(c1Cc1ccccc1)C(=O)CC(c1ccc(OC)cc1)C2 (stereo not given)	11%[46.1 µM]	12%	·	·	?	·	-14%	-3.3%
CCN(CC)C(=O)C(Oc1ccc(S(=O)(=O)N2CCCC2)cc1[N+](=O)[O-])c1ccccc1 (stereo not given)	?	2%	6%	-16%	?	-2%	·	·
O=C(/C=C/c1cccc(F)c1)NCc1ccc2c(c1)OCO2	3%	67%[activator]	0%	-6%	19%[46.1 µM]	-15%	·	·
Cc1ccc2nc(NC(=O)CCNS(=O)(=O)c3ccc(Br)s3)sc2c1	3%	0%	-54%	-3%	6%	-1%	-2%	-9.7%
COc1ccc(-c2cn[nH]c2-c2ccc(OCc3ccccc3F)cc2O)cc1OC	·	?	-3%	0%	·	14%	·	·
COc1ccc(NC(=O)c2[nH]c(C)c(C(C)=O)c2C)cc1S(=O)(=O)Nc1ccc(Br)cc1	?	3%	4%	0%	?	3%	·	·

Next records
mol	LASV entry inh	StopGo reporter	NS1 function inh	SARS PLP yeast	Marburg entry inh	RE007 growth inh	Cruzain noTriton	Cruzain inh Det
COc1ccc(NC(=O)[C@@H]2CCCN2S(=O)(=O)c2ccccc2F)cc1S(=O)(=O)N1CCCCC1	1%[46.1 µM]	5%	·	3%	?	-6%	·	·
Cc1cc([N+](=O)[O-])cc(C)c1OCC(=O)N/N=C/c1ccc(OC(=O)c2ccccc2)cc1	0%	-2%	-16%	0%	-2%	3%	13µM*	-4.2%
COc1ccc(-c2nc(S(=O)(=O)c3ccc(C)cc3)c(N3CCCCC3)o2)cc1	-8%[46.1 µM]	37%[activator]	·	·	-4%[46.1 µM]	·	-5%	-3.6%
Cc1ncsc1C(=O)Nc1nc2c(s1)CCCC2	?	-20%	-16%	-7%	?	?	-2%	-6.0%
COc1ccc(C(=O)NC2CCCc3c2cnn3-c2cc(F)cc(F)c2)c(OC)c1OC (stereo not given)	·	-7%	-16%	-8%	·	-7%	·	·
Cc1nc2ccccc2n1CC(=O)OCC(=O)NC1CC1	-2%	1%	7%	4%	0%[46.1 µM]	-8%	·	·
CCOc1ccc(CN2CCN(Cc3cc4ccccc4[nH]3)CC2CCO)cc1 (stereo not given)	·	-20%	7%	1%	·	-9%	·	·
CCCN1CCN(C(=O)c2ccc(CS(=O)c3ccc(F)cc3)o2)CC1 (stereo not given)	·	5%	7%	-2%	·	-22%	·	·
CC(=O)N1c2ccccc2N(Cc2ccc([N+](=O)[O-])cc2)C(=O)C1(C)C	-13%	-25%	4%	-8%	-27%	-5%	-9%	-4.5%
NC(=S)C(c1ccccc1)c1ncc(C(F)(F)F)cc1Cl (stereo not given)	·	-17%	1%	-3%	·	2%	·	·
CCC(C)NC(=O)c1cn(CC)c2cc(N3CCN(C(=O)c4ccco4)CC3)c(F)cc2c1=O (stereo not given)	?	-18%	-5%	2%	4%[46.1 µM]	-6%	·	·
COc1ccc(CN2CCOCC2)c(C)c1C	10%	-16%	-6%	10%	13%	1%	7%	3.6%

(further entries)
mol	LASV entry inh	StopGo reporter	NS1 function inh	SARS PLP yeast	Marburg entry inh	RE007 growth inh	Cruzain noTriton	Cruzain inh Det
COc1cc(OC)c(NS(=O)(=O)c2cc3c(cc2C)NC(=O)CO3)cc1Cl	2%[46.1 µM]	1%	·	·	·	·	12%	-9.4%
CC(CCN1CC1)=NNC(=O)Nc1cccc2ccccc12	?	-3%	·	·	?	-24%	·	·
CCOC(=O)C(C)On1c(-c2ccccc2)nc2ccc([N+](=O)[O-])cc21 (stereo not given)	2%	-22%	-68%	-8%	-3%	2%	-14%	-4.2%
O=C(COC(=O)CCCN1C(=O)c2cccc3cccc(c23)C1=O)Nc1cccc(Br)c1	-1%	-1%	1%	-14%	-4%	18%	-7%	-3.3%
CC1=NN(C(=O)Cn2ccc([N+](=O)[O-])n2)C(O)(C(F)(F)F)C1 (stereo not given)	1%	-5%	0%	-2%	6%	-22%	-8%	-0.8%
O=C(OCCN1C(=O)c2ccccc2C1=O)c1ccco1	15%	-7%	-1%	?	8%	11%	-1%	-0.1%
Cc1ccc(Cl)cc1-n1ncc2c(NCCCn3ccnc3)ncnc21	15%[46.1 µM]	-22%	·	·	·	·	10%	0.2%
CCCn1ccc2c(OCC(=O)Nc3cc(C)ccc3C)cccc2c1=O	?	-8%	·	·	·	·	9%	-4.5%
CC(C)Cc1nnc(NC(=O)CCC(=O)NC2CCCc3ccccc32)s1 (stereo not given)	12%	1%	-8%	7%	?	-4%	-18%	-0.7%
O=C(CN1C(=O)NC2(CCCC2)C1=O)N1CCN(c2ccccc2Cl)CC1	-1%	34%[activator]	·	-2%	7%	7%	·	·
Cc1oc2ccc(O)c(CN3CCOCC3)c2c1C(=O)Nc1ccccc1	2%[46.1 µM]	-23%	·	·	?	·	-3%	-3.0%
O=C(NCCS(=O)(=O)c1ccc(Br)cc1)c1ccccc1Cl	·	-16%	3%	2%	·	2%	·	·
Nc1ncc(S(=O)(=O)c2ccc(Cl)cc2)c(N)n1	·	0%	-4%	0%	0%	-1%	·	·
COC(=O)c1scc(S(=O)(=O)C(C)C)c1N/N=C(\C#N)C(=O)c1ccc(Cl)cc1	·	?	-4%	-5%	·	3%	·	·
CN(C)S(=O)(=O)c1cccc(CSc2cccc[n+]2[O-])c1	14%	20%	-8%	5%	2%	-4%	-1%	-4.5%

Complete entries, quoted from the list:
Listed for O=C(COC(=O)CCCN1C(=O)c2cccc3cccc(c23)C1=O)Nc1cccc(Br)c1 = LASV entry inh: -1%; StopGo reporter: -1%; NS1 function inh: 1%; SARS PLP yeast: -14%; Marburg entry inh: -4%; RE007 growth inh: 18%; Cruzain noTriton: -7%; Cruzain inh Det: -3.3%
Listed for Cc1oc2ccc(O)c(CN3CCOCC3)c2c1C(=O)Nc1ccccc1 = LASV entry inh: 2%[46.1 µM]; StopGo reporter: -23%; NS1 function inh: ·; SARS PLP yeast: ·; Marburg entry inh: ?; RE007 growth inh: ·; Cruzain noTriton: -3%; Cruzain inh Det: -3.0%
Listed for CC(C)Cc1nnc(NC(=O)CCC(=O)NC2CCCc3ccccc32)s1 (stereo not given) = LASV entry inh: 12%; StopGo reporter: 1%; NS1 function inh: -8%; SARS PLP yeast: 7%; Marburg entry inh: ?; RE007 growth inh: -4%; Cruzain noTriton: -18%; Cruzain inh Det: -0.7%
